Screening data deposited in PubChem BioAssay by Center for Chemical Genomics, University of Michigan.
TAR Tat displ: HIV-1 TAR-Tat binding disruption | 0.6% of 100,000 active | z-score (concentration not given with the values) | HIV-1 TAR RNA, Tat peptide displacement FRET; active compounds read high;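 note: score is relative to mean and SD of negative controls; some compounds called inactive have numbers as strong as hits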
CDC25B CDK2 inh: human CDC25B-CDK2/CyclinA binding inhibition; 0.72% of 94,000 active; z-score (test concentration not listed); AID 1259370; HTRF CDC25B-CDK2/CyclinA binding, anti-His/anti-Flag; active compounds read high;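 note: score is relative to mean and SD of negative controls; strong numbers were not always called active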
Numbers without * were called inactive; / = not tested or not shown.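 Rule for the calls: active = z-score from 3 up in half or more of its runs; inactive = the rest.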

mol | TAR Tat displ | CDC25B CDK2 inh
N#CC1CCN(C(=O)Cn2ncc3c2-c2ccccc2OC3)CC1 | -0.01 | 2.2
CCc1nonc1NC(=O)c1oc2ccccc2c1C | 2.3 | -1.4
Cc1ccc(NC(=O)C2C3C=CC4(O3)C2C(=O)N(C2CC2)C4C(=O)NC2CCCC(C)C2C)cc1C (centres undefined) | -0.34 | -0.87
Cn1c(=O)[nH]c(=O)c2c1nc(N)n2Cc1ccccc1 | -1.6 | 0.72
COc1ccc(CCN2CN=C(Nc3nc4ccccc4s3)NC2)cc1OC | -7.8 | -0.28
Cc1ccc2nc(SCC(=O)NCCSCc3ccco3)[nH]c2c1 | / | -1.2
CCc1ccc(S(=O)(=O)N2CCN(c3nc4ccccc4nc3-n3nc(C)cc3C)CC2)cc1 | 1.7 | -0.47
CCCC(=O)N(c1ccc2oc(=O)sc2c1)S(=O)(=O)c1ccc(OC)c(OC)c1 | 0.77 | -5.8
O=c1nc2c(-c3cccc(F)c3)n[nH]n2c2ccc(Cl)cc12 | 0.96 | -0.39
COc1ccc(-c2nc3ncccn3c2Nc2ccc3c(c2)OCO3)cc1 | / | -0.27
Cc1ccccc1-c1nc(SCc2cc(=O)n3ccsc3n2)n[nH]1 | 0.28 | /
Cc1ccc2c(C)nc(Nc3nc4c(c(=O)[nH]3)CCCC4)nc2c1 | 0.39 | 1.9
COc1ccc(OCC(O)Cn2c(N3CCNCC3)nc3c2c(=O)[nH]c(=O)n3C)cc1 (centres undefined) | / | -0.09
COc1ccc(OC)c(Sc2ncccc2C(=O)O)c1 | / | -0.2
S=C1CC(c2ccccc2)=Nc2ccccc2N1 | 0.5 | -1.6
Cc1sc2ncn(CC(=O)N3CCCCC3C)c(=O)c2c1S(=O)(=O)N1CCN(C)CC1 (centres undefined) | / | 17*
COC(=O)c1cccc(C(=O)OC)n1 | 1.1 | 0.4
CC(CCc1ccccc1)NC(=O)C(C)n1ncn2c(cc3occc32)c1=O (centres undefined) | 0.39 | 2.2
O=C(CCCc1nc(-c2cccnc2)no1)Nc1nccs1 | 0.23 | -0.41
CC(C)c1ccc(-c2noc(SCC(=O)N3CCNC3=O)n2)cc1 | 1.8 | /

13 successive compounds from above, for reference:
mol | TAR Tat displ | CDC25B CDK2 inh
N#CC1CCN(C(=O)Cn2ncc3c2-c2ccccc2OC3)CC1 | -0.01 | 2.2
CCc1nonc1NC(=O)c1oc2ccccc2c1C | 2.3 | -1.4
Cc1ccc(NC(=O)C2C3C=CC4(O3)C2C(=O)N(C2CC2)C4C(=O)NC2CCCC(C)C2C)cc1C (centres undefined) | -0.34 | -0.87
Cn1c(=O)[nH]c(=O)c2c1nc(N)n2Cc1ccccc1 | -1.6 | 0.72
COc1ccc(CCN2CN=C(Nc3nc4ccccc4s3)NC2)cc1OC | -7.8 | -0.28
Cc1ccc2nc(SCC(=O)NCCSCc3ccco3)[nH]c2c1 | / | -1.2
CCc1ccc(S(=O)(=O)N2CCN(c3nc4ccccc4nc3-n3nc(C)cc3C)CC2)cc1 | 1.7 | -0.47
CCCC(=O)N(c1ccc2oc(=O)sc2c1)S(=O)(=O)c1ccc(OC)c(OC)c1 | 0.77 | -5.8
O=c1nc2c(-c3cccc(F)c3)n[nH]n2c2ccc(Cl)cc12 | 0.96 | -0.39
COc1ccc(-c2nc3ncccn3c2Nc2ccc3c(c2)OCO3)cc1 | / | -0.27
Cc1ccccc1-c1nc(SCc2cc(=O)n3ccsc3n2)n[nH]1 | 0.28 | /
Cc1ccc2c(C)nc(Nc3nc4c(c(=O)[nH]3)CCCC4)nc2c1 | 0.39 | 1.9
COc1ccc(OCC(O)Cn2c(N3CCNCC3)nc3c2c(=O)[nH]c(=O)n3C)cc1 (centres undefined) | / | -0.09

Next entries
mol | TAR Tat displ | CDC25B CDK2 inh
COc1ccc(OC)c(-n2c(SCC(=O)Nc3cc(C)on3)nnc2-c2c[nH]c3ccccc23)c1 | / | -0.01
O=C(C1CCC(CNc2c(N3CCCC3)c(=O)c2=O)CC1)N1CCN(c2ccccc2F)CC1 (centres undefined) | / | -2.1
O=c1c2cc3c(cc2nc2sc(Nc4ccc(F)c(Cl)c4)nn12)OCO3 | 3.1 | -1.6
S=C1NCN(Cc2ccco2)CN1CC1CCCO1 (centres undefined) | / | -0.61
CCCCN(C)CCCNC(=O)C1CCCN(c2nn3c(=O)cc(C)nc3s2)C1 (centres undefined) | 3.2 | -2.1
CC1Cc2ccccc2N1C(=O)c1cc(S(=O)(=O)N2CCCCC2)c[nH]1 (centres undefined) | 2.2 | /
Cc1cc(C)cc(NC2c3ccccc3C(=O)N2c2cc(C)ccn2)c1 (centres undefined) | -0.18 | -1.4
CCCS(=O)(=O)Nc1cccc(-c2cn3ccc(C)cc3n2)c1 | 0.52 | 0.59
Cc1cc(Nc2ccccc2C)nc(C)n1 | -0.56 | -1.2
Cn1c(-c2c(CCC(=O)O)oc3cc(O)ccc3c2=O)nc2ccccc21 | 0.44 | -1.5
c1ccc(-c2nnc(CN3CCN(C4CCCCC4)CC3)o2)cc1 | 0.82 | -0.83
CCCN1C(=O)c2[nH]nc(-c3ccccc3)c2C1c1ccccn1 (centres undefined) | -0.77 | -0.78
Cn1c(=O)n(Cc2ccccc2Cl)c(=O)c2c1nc1n2CCN1c1ccc(F)cc1 | 4.3 | /
Cc1c(C(=O)N2CCOCC2)c(S(=O)(=O)Nc2ccc3c(c2)OCCO3)c(C)n1C | -0.72 | /
O=C(c1ccc(Cn2c(=O)c3cccn3c3cccnc32)o1)N1CCC(N2CCCCC2)CC1 | 0.5 | /
CCn1c(C)nc2cc(CO)ccc21 | 1.8 | -1.9
COc1ccc(/C=N/NC(=O)c2cccn2-c2ccc(F)cc2)cc1 | / | -1.2
COc1ccc(C(=O)Oc2cc(=O)oc3ccccc23)cc1OC | / | -1.4
COc1cc(Cl)c(C)cc1Nc1nc2ccccc2n2cnnc12 | 0 | -0.04
CCOc1ccccc1NC(=O)c1cnc2scc(C)n2c1=O | / | -2.6

(further entries)
Under each structure – TAR Tat displ	CDC25B CDK2 inh
- Cc1ccc(-n2ncc3c(NCC(C)C)ncnc32)c(C)c1
  1.1	/
- CC(=O)N1CCCc2cc(S(=O)(=O)N3CCCC(C(=O)NCCN4CCC(C)CC4)C3)ccc21 (centres undefined)
  0.75	/
- O=S(=O)(NCc1csc(-c2ccccc2)n1)c1cccc(F)c1
  0.14	-0.43
- CC(C)CCSc1ncnc2c1oc1nc3c(cc12)COC(C)(C)C3
  -0.45	/
- COc1cccc(N2CC(c3nc4ccccc4n3CCOc3ccccc3)CC2=O)c1 (centres undefined)
  0.37	0.09
- O=C1CCC(=O)N1CCn1c2ccc(Br)cc2c2nc3ccccc3nc21
  2.4	-2.5
- O=C(CSc1nc2[nH]ncc2c(=O)n1-c1ccccc1)Nc1ccc(Br)cc1F
  1.8	/
- O=C(CCCCCn1c(=O)[nH]c2ccsc2c1=O)Nc1ccc(F)cc1
  2.5	-0.23
- Cc1nc2ccccc2c2c1C(=O)NC2=O
  /	0.34
- NC(=O)c1c(NC(=O)c2ccc(Cn3cc(Cl)cn3)o2)sc2c1CCCCCC2
  1.7	-0.81
- CC(=O)Nc1csc2ccccc12
  /	-1.2
- C=CCc1ccccc1OCC(O)CN1CCCCC1 (centres undefined)
  -0.34	-2.3
- CC1(C)CC(=O)CC(C2(O)C(=O)N(Cc3ccccc3)c3ccccc32)O1 (centres undefined)
  /	-0.73
- O=C(NCC1CCN(S(=O)(=O)c2ccccc2)CC1)Nc1ccc(F)cc1F
  /	-0.17
- Cc1cc2oc3c(c(=O)c2cc1C)C(c1ccc(C(C)(C)C)cc1)N(CCCN1CCOCC1)C3=O (centres undefined)
  0.67	-2.8
- Oc1ccccc1-c1nc2cnccn2c1Nc1cccc(C(F)(F)F)c1
  /	0.86
- COC(=O)C1=C(C)NC2=C(C(=O)c3ccccc32)C1c1ccc(OC)c(Cl)c1 (centres undefined)
  0.23	-0.92
- O=[N+]([O-])c1ccc(/C=N/Nc2nccc(-c3cccnc3)n2)cc1
  /	-1
- CN(C(=O)C1CCN(c2ncnc3c2nc2n3CCCCC2)CC1)c1ccccc1
  2.4	/
- Cc1ccc(-n2c(=O)c(C#N)cc3c(=O)n4ccccc4nc32)c(C)c1
  -0.98	-0.46
- CC(Oc1ccccc1)C(=O)NC1C(=O)N2C1SC(C)(C)C2C(=O)O (centres undefined)
  -0.25	2.4
- CCn1c2ccccc2c2nnc(NCCc3ccccc3)nc21
  1.2	0.77
- Cn1cnc2cc(-c3noc(CNC(=O)c4ccco4)n3)ccc21
  2.5	/
- Cc1nn(CCCC(=O)N2CCN(C(=O)c3ccco3)CC2)c(=O)c2cc3occc3n12
  3.7	-0.57
- COc1ccc2nc(Sc3c(-c4ccccc4)c4ccccc4[nH]c3=O)[nH]c2c1
  0.76	-1.4
- CN1CCCC(COC(=O)c2cnn3c(C(F)(F)F)cc(-c4ccc(F)cc4)nc23)C1 (centres undefined)
  1.1	-2
- COC(=O)c1ccc(C2c3c(-c4ccccc4O)n[nH]c3C(=O)N2Cc2ccc(OC)cc2)cc1 (centres undefined)
  -1.1	-1.4
- Cc1cc(NC(=O)c2cc3c(s2)-c2ccccc2S(=O)(=O)C3)no1
  1.5	2.9
- CC(C)c1onc(C(=O)Nc2cccc(O)c2)c1[N+](=O)[O-]
  0.86	-0.86
- O=C(NCc1csc2ccccc12)Nc1ccc(Cl)c(Cl)c1
  /	-0.19
- CN1C(=O)C(CC(=O)Nc2ccccc2F)N(CCc2ccc(S(N)(=O)=O)cc2)C1=S (centres undefined)
  /	-1.2
- CCC1CCCCN1C(=O)NC1(C(F)(F)F)Oc2ccccc2O1 (centres undefined)
  /	-1.5
- CCSc1nc2c(c(=O)[nH]1)C(c1ccccc1OC(C)C)CC(=O)N2 (centres undefined)
  0.47	-1.4
- CCOc1ccc2ncc(S(=O)(=O)c3ccc(C)cc3)c(N3CCN(C)CC3)c2c1
  0.51	-0.27
- O=C(OCC1CCCO1)c1c(-c2ccccc2)c(-c2ccccc2)n[nH]c1=O (centres undefined)
  1.1	-1.2
- CCOC(=O)N1CCN(C(=O)C2CCCN(c3nc4ccc(OCC)cc4s3)C2)CC1 (centres undefined)
  1.2	-3.2
- CCc1sc(-c2c(C#N)c(N)nc3c2CCCC3)cc1[N+](=O)[O-]
  2.8	-3.4
- Cc1cc(C)c(-c2n[nH]c3c2C(c2cccc(Br)c2)N(CCO)C3=O)c(O)c1 (centres undefined)
  0.82	-0.92
- Cc1csc(C(=O)Nc2cc(C(F)(F)F)cc(C(F)(F)F)c2)c1
  /	0.21
- S=c1[nH]nc(CSCCOc2ccc(Cl)cc2Cl)o1
  /	-1.4
- Cc1cc(Cl)ccc1OC(C)c1nc(-c2ccc(-n3cccc3)cc2)no1 (centres undefined)
  -3.8	-1.2
- Cc1cc(NC(=O)C(=O)NC2CCCCNC2=O)no1 (centres undefined)
  /	-0.86
- CCc1nn(CC(=O)NCCCN2CCc3ccccc3C2)c(=O)c2cc3occc3n12
  2.9	-1.5
- Cc1cc(-c2ccccc2)c2c3c(c(-c4ccccc4)n2n1)c(=O)n(C)c(=O)n3C
  -7.8	-0.41
- CCC1(C)Cc2c(sc3nc(SCC(=O)Nc4ccc(Cl)cc4)nc(N)c23)CO1 (centres undefined)
  2	-1.5
- COc1cc(OC)c(NC(=O)N2CCC3(CC2)Nc2cc(F)ccc2-n2cccc23)cc1Cl
  -0.63	/
- COc1ccccc1C(=O)CC1(O)C(=O)Nc2ccccc21 (centres undefined)
  -0.13	-1.3
- N#Cc1ccc(OC(=O)c2ccc(Cl)cc2Cl)cc1
  /	-0.86
- CCC(=O)OCCNc1cc(N2CC(C)CC(C)C2)c2noc3c2c1C(=O)c1ccccc1-3 (centres undefined)
  -6.2	-2.7
- O=C1C=C(SCC(=O)Nc2ccc(Cl)cc2Cl)SC(c2ccccc2Cl)C1 (centres undefined)
  /	-1.2

Continued.
Under each structure – TAR Tat displ	CDC25B CDK2 inh
- CCCSCCCN1C(=O)c2cc3occc3n2CC1(C)C(=O)NC1CCCCC1 (centres undefined)
  1.5	/
- CN1CCc2c(n(CC(O)CN3CCCCC3)c3ccccc23)C1=O (centres undefined)
  /	-0.64
- O=C(Cn1c(=O)n(-c2ccccc2)c(=O)c2c3c(sc21)CCC3)NCc1ccco1
  /	-2.4
- CCCCc1nc2ccccc2n1C(C)C(=O)O (centres undefined)
  -0.9	-1.1
- Cc1ccc(-c2nc(COc3ccc(Cl)c(C)c3)no2)cc1
  0.4	-0.79
- CCOc1ccc(CN2CCc3nc(N4CCN(CC)CC4)ncc3C2)cc1OCC
  0.79	/
- c1nc(NCCc2ccc3c(c2)OCO3)c2c3c(sc2n1)CCCC3
  -0.01	/
- CC1CCCC(C)N1C(=O)C1Sc2nnc(-c3ccccc3)n2NC1c1ccc(F)cc1 (centres undefined)
  1.1	1.1
- O=C(CCS(=O)(=O)c1cc2c(cc1Cl)NC(=O)CO2)Nc1ccc(F)cc1F
  1.6	/
- Cc1c(C(=O)N2CCc3ccccc32)sc2nc3n(c(=O)c12)CCCC3
  2.1	/
- Cc1cc(N2C(=O)CSC2c2cccnc2)no1 (centres undefined)
  /	-0.19
- CCCCNc1cc(=O)n(C)c(=O)n1C
  0.43	-2.2
- CCCCCNc1ncnc2c1sc1nc(N3CCOCC3)c3c(c12)CC(C)(C)OC3
  1.7	-0.97
- C/C(=N\Nc1ncn[nH]1)c1ccc(Cl)c(Cl)c1
  /	-1.8
- O=C(CSc1nc2cc3c(cc2c(=O)n1Cc1ccco1)OCO3)c1ccc(Cl)cc1
  /	-0.47
- Fc1ccccc1-c1nnc(C(Nc2ccccc2)c2ccccc2)o1 (centres undefined)
  0.01	1
- CCS(=O)(=O)N1CCCC1c1cc(C)no1 (centres undefined)
  1	/
- CC(C)C(=O)N(c1ccc2oc(=O)sc2c1)S(=O)(=O)c1ccc(Cl)cc1
  0.17	-2.3
- COc1ccccc1N1CCN(S(=O)(=O)c2cccc3ccccc23)CC1
  2.8	0.44
- CN(C)S(=O)(=O)c1ccc(/C(O)=C2\C(=O)C(=O)N(CCN3CCOCC3)C2c2ccco2)cc1 (centres undefined)
  2.1	-1.3

Not a hit list; about 0.94% have a hit in one of these screens.
